CSC inhib = blocks cancer stem cells | 300,000 tested, 1.1% active | AID 2717 | inhibition, % at 7.5 µM | cancer stem cell-like cells viability, luminescence;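 active = mean at 75% or more and at least half the replicates too; inconclusive = mean and replicates disagree; tested in HMLE shEcad cells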;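 also: 0% = median of negative and 100% = median of positive control wells; the first replicate is given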
eIF4H FP inh = inhibitors of RNA binding by human eIF4H; eIF4H fluorescence polarization binding assay; 290,000 tested, 0.94% active; inhibition, % at 35 µM; Q15056;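 active = 50% or more with normal probe brightness, or confirmed in later tests; inconclusive = above 50% with abnormal brightness, or retests that disagree; inactive = below 50% or failed in later tests; about a fifth of its hits are not listed in these tables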;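 also: calls also rest on retests at 20 µM and on dose response follow-up; 0% = protein and probe with vehicle and 100% = probe without protein; strong numbers were not always called active; many hits fall short of the cut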
PABP polyA inh = PABP-poly(A) binding inhibition; P11940; PABP-poly(A) RNA binding, fluorescence polarization; AID 2014; 290,000 tested, 1% active; inhibition, % at 35 µM;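 active = 50% or more with normal probe brightness, or confirmed in later tests; inconclusive = above 50% with abnormal brightness, or retests that disagree; inactive = below 50% or failed in later tests; about a fifth of its hits are not listed in these tables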;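 also: calls also rest on retests at 20 µM and on dose response follow-up; controls were probe without protein and protein plus probe with vehicle; some compounds called inactive have numbers as strong as hits; many hits fall short of the cut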
Target sequence (P11940 whole entry, looked up): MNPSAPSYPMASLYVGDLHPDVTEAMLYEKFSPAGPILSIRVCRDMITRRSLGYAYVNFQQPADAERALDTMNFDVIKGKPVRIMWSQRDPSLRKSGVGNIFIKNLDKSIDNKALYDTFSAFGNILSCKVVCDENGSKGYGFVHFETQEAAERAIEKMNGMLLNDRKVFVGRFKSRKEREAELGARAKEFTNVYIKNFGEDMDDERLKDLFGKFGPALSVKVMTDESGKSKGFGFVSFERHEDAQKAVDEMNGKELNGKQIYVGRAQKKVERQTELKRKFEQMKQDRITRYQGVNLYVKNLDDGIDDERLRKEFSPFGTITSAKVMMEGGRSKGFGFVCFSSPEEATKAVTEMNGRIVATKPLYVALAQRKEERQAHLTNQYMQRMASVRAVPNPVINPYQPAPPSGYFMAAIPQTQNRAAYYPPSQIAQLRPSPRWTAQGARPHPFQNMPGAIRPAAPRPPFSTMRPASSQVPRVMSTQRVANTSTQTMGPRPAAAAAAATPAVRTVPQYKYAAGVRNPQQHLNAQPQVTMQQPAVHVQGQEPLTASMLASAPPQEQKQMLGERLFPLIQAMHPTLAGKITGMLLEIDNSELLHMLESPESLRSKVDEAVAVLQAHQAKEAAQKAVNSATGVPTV
UUG fidelity = yeast start codon fidelity modulation; S. cerevisiae UUG-firefly luciferase reporter, luminescence/redox ratio; activity score, % at 18.7 µM; 350,000 tested, 0.13% active; AID 602363;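 active = replicate mean at a twofold rise or more, about +100% in these data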;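 also: firefly luciferase made from a UUG start codon reports start codon fidelity; reporter light over untreated wells divided by growth signal over untreated wells; some hits fall short of that in this replicate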
Env fusion inh = blocks HIV Env-driven cell-cell fusion; HeLa-JRFL Env/CEM21 cell fusion, luciferase; inhibition, % at 12.3 µM; 360,000 tested, 1.1% active;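 active = mean replicate inhibition score of at least 50 and every replicate individually at or above 50; inconclusive = only one of the two criteria met; inactive = mean below 50 and not all replicates reaching 50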;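 also: 0% = plate neutral controls and 100% = maraviroc near 300 nM; one replicate is shown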
Rce1 inhib = yeast Ras-converting enzyme inhibition; 290,000 tested, 0.27% active; yeast membranes, quenched prenylated peptide cleavage fluorescence; Q03530; calls only;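 active = fall in fluorescence gain of 50% or more versus controls, with final raw signal at or below 3038400; inconclusive = same 50% fall but final raw signal above 3038400; inactive = fall in fluorescence gain under 50%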;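 also: plate controls were neutral control wells for no effect and wells lacking membranes for full effect; tested at 10 µM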
MT1-MMP act inh = blocks activation of human MT1-MMP. P50281. HT1080 RFP-PRO-GFP cells, GFP/RFP ratio fluorescence, overnight; percent of plate control window, DMSO zero. GFP/RFP ratio change, % at 20 µM. 360,000 tested, 0.061% active. AID 651647;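 active = GFP/RFP ratio change of at least 30% with cell ATP level not reduced by more than half and red fluorescence within 50% of control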; also: strong numbers were not always called active
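Compound: 20 µM single dose, 1% DMSO / System: HT1080 RFP-PRO-GFP cells / Controls: DMSO and RFP-L50D-GFP cell wells / Read-out basis: GFP/RFP fluorescence ratio / Schedule: overnight compound exposure at 37 °C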
eIF4H FP inh retest = further read-out of eIF4H FP inh, marked with its call; inhibition, %; compound at 20 µM; confirmation average;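 mean of two retest wells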
PABP polyA inh retest = recorded beside PABP polyA inh, whose call it bears; inhibition, %; compound at 20 µM; confirmation repeats;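 mean of two retest wells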
MT1-MMP act inh RFP = recorded beside MT1-MMP act inh, whose call it bears; RFP signal change, %; measured here: RFP expression control read;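 0 = vehicle wells; hits needed this value within 50% of zero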
An asterisk follows results filed as active; i = inactive; ? = inconclusive; nt = not tested or not shown.

Preview (2 entries):
SMILES | CSC inhib | eIF4H FP inh | PABP polyA inh | UUG fidelity | Env fusion inh | Rce1 inhib | MT1-MMP act inh | MT1-MMP act inh RFP | others
O=C(NCCc1cccc(Cl)c1)C1CCC(=O)N(Cc2ccc(Cl)cc2)C1 (stereo unspecified) | 28 | -12 | 4 | 2 | 24 | i | -3 | -3
NC(=O)CNc1ncc(C(F)(F)F)cc1Cl | -10 | 2 | -2 | -12 | -6 | i | 5 | 8

Main list, previewed entries included:
SMILES | CSC inhib | eIF4H FP inh | PABP polyA inh | UUG fidelity | Env fusion inh | Rce1 inhib | MT1-MMP act inh | MT1-MMP act inh RFP | others
O=C(NCCc1cccc(Cl)c1)C1CCC(=O)N(Cc2ccc(Cl)cc2)C1 (stereo unspecified) | 28 | -12 | 4 | 2 | 24 | i | -3 | -3
NC(=O)CNc1ncc(C(F)(F)F)cc1Cl | -10 | 2 | -2 | -12 | -6 | i | 5 | 8
O=C(CSc1nnc(-c2cccs2)n1-c1cccc(Cl)c1)c1cccc2c1OCCO2 | 54 | 63 | -4 | -23 | -69 | i | -7 | -11 | eIF4H FP inh retest=2;PABP polyA inh retest=4
CC(OC(=O)C1=Cc2ccccc2OC1)C(=O)NCc1ccco1 (stereo unspecified) | -9 | 5 | -3 | nt | 11 | i | 1 | -2
O=C(c1cc2cc(F)ccc2[nH]1)N1CCc2ccccc21 | -7 | 6 | 5 | -23 | -45 | i | 2 | 4
CC(C)CC(C(=O)OCC(=O)c1c(N)n(C)c(=O)n(C)c1=O)N1C(=O)C2CC=CCC2C1=O (stereo unspecified) | -1 | -4 | ? | -1 | 14 | i | -1 | 1
CCc1nc(C(N)=O)c2[nH]c(=O)n(-c3ccc(OC)cc3OC)c2n1 | -4 | -12 | -1 | -4 | nt | i | -2 | 3
Cc1cc(OCC(O)CNC(C)c2ccccc2)ccc1C(C)C (stereo unspecified) | 8 | 3 | 11 | -8 | 82* | i | 2 | 4
Cc1ccc2c(c1)N(C(C)C(=O)NCc1ccccn1)C(=O)CO2 (stereo unspecified) | -2 | -5 | -17 | nt | -16 | i | -2 | 3
Cc1sc2ncnc(SCC(=O)N(C)C3CCS(=O)(=O)C3)c2c1C (stereo unspecified) | -5 | -3 | 5 | nt | 1 | i | 3 | -1
Cc1cccc(CCNC(=O)CCS(=O)(=O)c2ccc3nc(C)sc3c2)c1 | -11 | 6 | -3 | -13 | -15 | i | -4 | 1
CCOC(=O)c1ccc(N/C(=N\S(=O)(=O)c2ccc(F)cc2F)c2ccccc2)cc1 | 8 | -4 | -4 | nt | nt | i | 1 | -5
COC(=O)c1c(NC(NC(=O)C(C)(C)C)C(Cl)(Cl)Cl)sc2c1CCC2 (stereo unspecified) | 43 | 0 | 4 | -8 | nt | i | -55 | -47
Cc1c(C(=O)/C=C/c2ccccc2F)c2cc(O)ccc2n1C | nt | nt | nt | -17 | -65 | nt | 1 | -3
Cc1ccc(OCCN(C)C(=O)CC2C(=O)NCCN2CC(C)(C)C)cc1 (stereo unspecified) | -9 | -5 | -7 | -11 | 15 | i | 0 | 3
CN(CC(=O)Nc1c(Cl)cccc1Cl)C(=O)c1ccc(-n2cncn2)c([N+](=O)[O-])c1 | -3 | nt | nt | nt | -33 | i | 0 | 1
CC(=O)Nc1sc2c(c1C#N)CCC2 | 5 | -2 | -3 | -21 | 13 | i | 0 | 3
c1ccc2nc(SCc3cn4ccccc4n3)cnc2c1 | -13 | 13 | -19 | -24 | 4 | i | -1 | -5
CN(C)S(=O)(=O)c1cccc(NC(=O)c2cccc(S(=O)(=O)N3CCCCCC3)c2)c1 | nt | nt | nt | -23 | 12 | nt | 5 | -17
CCOC(=O)C1=C(C)NC(=O)C(C#N)C1c1ccncc1 (stereo unspecified) | -6 | -3 | 5 | -21 | nt | i | 5 | 2
O=C(CCN1CCC2CCC(C2)C1)c1ccccc1 (stereo unspecified) | nt | nt | nt | -16 | 25 | nt | 0 | 6
CCn1c(C)cc(/C=C2\NC(=O)N(CC(=O)Nc3cccc(C)c3)C2=O)c1C | nt | 5 | -1 | -19 | -46 | i | -10 | 2
O=C(c1cc2sccc2n1Cc1ccc(F)cc1)N1CCN(c2nc3ccccc3s2)CC1 | 25 | -3 | 0 | -8 | 87* | i | 6 | -16
CC1(c2nnc(Cc3ccccc3)o2)CC(c2cccc(F)c2)=NO1 (stereo unspecified) | 5 | nt | nt | -14 | 9 | i | 6 | 4
CCOc1ccc(NC(=O)C(C)C(Cc2ccc(C)cc2)C(=O)O)cc1 (stereo unspecified) | -3 | -8 | 3 | nt | -2 | i | 0 | 3
Cc1ccc(C(=O)N/C(=C/c2cccnc2)C(=O)O)cc1 | -1 | 4 | -4 | -8 | 2 | i | 0 | 6
COC(=O)c1ccccc1N1C(=O)C2C(C1=O)C1C=CC2C12CC2 (stereo unspecified) | 20 | -12 | -10 | -23 | -22 | i | -2 | 3
NS(=O)(=O)c1ccc(N=Nc2c(O)[nH]c3ccc(Br)cc23)cc1 | 14 | 40 | 38 | -1 | 10 | i | -11 | -9
CC/C(=N/OC(=O)c1cccc(C)c1)C(=O)c1cccs1 | -7 | 6 | -1 | nt | -2 | i | -2 | -1
Cc1nnc2n(c1=O)C(CS(=O)(=O)c1ccc3ccccc3c1)CS2 (stereo unspecified) | -9 | -3 | -4 | -15 | -12 | i | -2 | 3
Cc1ccc(C(=O)CC(=O)c2ccccc2)cc1 | -17 | 1 | -3 | -9 | -76 | i | 3 | 8
COCCNC(=O)Cn1nc(C(F)(F)F)c(Cl)c1C | -17 | -5 | 0 | -5 | nt | i | 1 | 3
CCCS(=O)(=O)N1CCCC(C(=O)NCc2ccc3c(c2)OCO3)C1 (stereo unspecified) | 9 | -5 | -7 | -15 | nt | i | 0 | 1
COc1ccccc1N(C)S(=O)(=O)c1ccc(C(=O)Nc2nnc(C)s2)cc1 | nt | nt | nt | -17 | 7 | nt | 5 | 2
Clc1ccc(NN(Cc2ccncc2)c2ccc(Cl)cc2)cc1 | nt | nt | nt | -19 | -27 | nt | -14 | -13
CCCCN(C)CCCNC(=O)C1CC(=O)N(Cc2ccc(OC)cc2)C1 (stereo unspecified) | nt | 5 | 0 | 4 | nt | i | 0 | 5
Cc1cccc(OCC(=O)NNC(=O)C2CCN(c3ncnc4sc(C)c(C)c34)CC2)c1 | -12 | nt | nt | -8 | 12 | i | -6 | -4
CC1CCC2(CC1)NC(=O)N(NC(=O)CSc1nnc(NC3CC3)s1)C2=O (stereo unspecified) | 1 | nt | nt | -14 | -1 | nt | 2 | 3
COc1cc(OC)c(C(=O)OCC(=O)Nc2cc(C)on2)cc1OC | 1 | 0 | 2 | nt | -4 | i | -2 | 0
O=C(NCCc1cccnc1)C1CCC(=O)N(Cc2cccc(C(F)(F)F)c2)C1 (stereo unspecified) | 2 | 5 | 4 | -13 | -20 | i | 0 | 1
Cc1cccc(OCC(=O)NC(C)C(=O)N/N=C/c2c(OCc3ccccc3)ccc3ccccc23)c1 (stereo unspecified) | nt | 0 | 1 | -15 | nt | i | -6 | -1
Cc1ccc(N/N=C(\C#N)C(=O)c2ccsc2)cc1 | 54 | -3 | -5 | nt | 4 | i | 4 | -10
CCCCc1c(C)c(C#N)c2[nH]c3ccccc3n2c1=O | -21 | 12 | -6 | 9 | nt | i | -6 | -21
Cc1c(=O)n(OCc2ccccc2)c2ccccc2[n+]1[O-] | -3 | 2 | 8 | -17 | nt | i | -9 | 3
COc1ccc(-c2nnc(SCC(=O)Nc3ccc(Cl)cc3)n2C)cc1 | -2 | -9 | -7 | -3 | nt | i | 5 | -1
CN(Cc1ccccc1)C(=O)C1CCCN1S(=O)(=O)c1ccc2c(c1)n(C)c(=O)c(=O)n2C (stereo unspecified) | -6 | -3 | 3 | -18 | -4 | i | 3 | 2
COC(=O)c1c(NC(=O)c2ccc(S(=O)(=O)N3CCOCC3)cc2)sc2c1CCN(C)C2 | nt | -17 | 3 | nt | -43 | nt | nt | nt
Cc1ccc(NS(=O)(=O)c2ccccc2Cl)c2c1CC(C)(C)O2 | 4 | -14 | 8 | -4 | -29 | i | 0 | 0
CCOc1ccc(CCNC(=O)COC(=O)c2ccco2)cc1OCC | -5 | -6 | -18 | -16 | nt | i | 3 | 6
O=C(CC1SC(=Nc2ccccc2)N(Cc2ccccn2)C1=O)Nc1ccc(Br)cc1 (stereo unspecified) | nt | -2 | 7 | -23 | 10 | i | -8 | -6
CCOC(=O)c1c(C)n(-c2ccc(OC)cc2)c2ccc(O)c(CN(C)C)c12 | 11 | -2 | 0 | -3 | -2 | i | -3 | -6
CCOC(=O)C1CCN(CC(=O)Nc2c(C(=O)OC)[nH]c3ccc(Cl)cc23)CC1 | 3 | -3 | -3 | -18 | nt | i | 5 | -26
CN(CCc1ccccc1)c1cc2c(c3c1ccn3C)C1CCC2C1 (stereo unspecified) | nt | nt | nt | -3 | 4 | nt | -2 | -3
COc1cccc(-c2ccc(=O)n(CC(=O)NCCN3CCOCC3)n2)c1 | nt | 0 | 1 | nt | -27 | i | 5 | 1
NS(=O)(=O)c1ccc(CCNC(=O)c2cc([N+](=O)[O-])ccc2N2CCCCC2)cc1 | -7 | -14 | 12 | -1 | 14 | i | -1 | -3
Cc1cccc(CN(C)C[C@@H]2OCc3cnnn3CCCC(=O)N([C@H](C)CO)C[C@H]2C)c1 | nt | nt | nt | 6 | -5 | nt | 3 | 7
O=C(Nc1ccccc1Cl)Oc1ccc2ccccc2c1 | -6 | 6 | 0 | nt | nt | i | nt | nt
CSc1ncc(Cl)c(C(=O)Nc2ccc(S(=O)(=O)Nc3nccc(C)n3)cc2)n1 | -3 | -12 | 0 | -8 | 1 | i | -7 | 4
Cc1ccc(C)c2c1cc(C)c1nnc(SCC(=O)NCc3ccc4c(c3)OCO4)n12 | 2 | -4 | 7 | nt | -7 | i | 3 | 4
COc1cc2c(C(=O)N3CCOCC3)c(CSc3ccccc3)n(C)c2cc1Br | -1 | -1 | 8 | nt | -10 | i | 12 | -2

Following part:
SMILES | CSC inhib | eIF4H FP inh | PABP polyA inh | UUG fidelity | Env fusion inh | Rce1 inhib | MT1-MMP act inh | MT1-MMP act inh RFP | others
C#CCOCCOCCOCCNc1nc(N2CCOCC2)nc(N2CCN(C(=O)[C@H]([C@@H](C)CC)n3cc([C@@H](N)Cc4ccc(O)cc4)nn3)CC2)n1 | -6 | -6 | 2 | -12 | nt | i | 1 | 7
CSc1cccc(N2C(=O)C3CCCN3C2=S)c1 (stereo unspecified) | -9 | 7 | 0 | -3 | 9 | i | -2 | 1
CCOC(=O)c1ccc(NC(=S)N2CCN(Cc3ccccc3)CC2)cc1 | -1 | -14 | 6 | -24 | nt | i | -2 | 2
CS(=O)(=O)c1ccc(-c2nnc(NC(=O)c3ccc(S(=O)(=O)N4CCCC4)cc3)o2)cc1 | -3 | nt | nt | -10 | 12 | i | 0 | -2
CC1CC(NC(=O)c2cc3c(=O)n4ccccc4nc3n2C)CC(C)(C)C1 (stereo unspecified) | 10 | -5 | 4 | 2 | -1 | i | 6 | -3
CCOC(=O)[C@@H](CCc1ccccc1)N[C@H](C)C(=O)N1[C@H](C(=O)O)C[C@@H]2CCC[C@@H]21 | -6 | -8 | -1 | -6 | nt | i | 2 | 1
Cc1ccccc1OCC(=O)Nc1ccc(S(=O)(=O)N2CCOCC2)cc1 | nt | -6 | 9 | -9 | -3 | i | 1 | -5
COc1ccc(CCNC(=O)COC(=O)c2cccs2)cc1OC | 5 | -3 | -8 | -6 | 3 | nt | -1 | 1

Compound activity from PubChem BioAssay.

Compounds as they come (roughly 2.9% active in at least one column).
